AF4-AF9 inh – blocks AF4 peptide binding to human AF9 | AlphaScreen, biotin-AF4 peptide binding to FLAG-AF9 | AID 651704 | inhibition, % at 10 µM | 0.47% of 350,000 active;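 active means every replicate reaching a set inhibition limit, whatever the replicate mean, cut at about 25% in these data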;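 further: 0% = plate neutral control median and 100% = total signal loss; the record names both 10 and 1 µM as test concentration; the first replicate is given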
Target sequence (P42568 whole entry, looked up): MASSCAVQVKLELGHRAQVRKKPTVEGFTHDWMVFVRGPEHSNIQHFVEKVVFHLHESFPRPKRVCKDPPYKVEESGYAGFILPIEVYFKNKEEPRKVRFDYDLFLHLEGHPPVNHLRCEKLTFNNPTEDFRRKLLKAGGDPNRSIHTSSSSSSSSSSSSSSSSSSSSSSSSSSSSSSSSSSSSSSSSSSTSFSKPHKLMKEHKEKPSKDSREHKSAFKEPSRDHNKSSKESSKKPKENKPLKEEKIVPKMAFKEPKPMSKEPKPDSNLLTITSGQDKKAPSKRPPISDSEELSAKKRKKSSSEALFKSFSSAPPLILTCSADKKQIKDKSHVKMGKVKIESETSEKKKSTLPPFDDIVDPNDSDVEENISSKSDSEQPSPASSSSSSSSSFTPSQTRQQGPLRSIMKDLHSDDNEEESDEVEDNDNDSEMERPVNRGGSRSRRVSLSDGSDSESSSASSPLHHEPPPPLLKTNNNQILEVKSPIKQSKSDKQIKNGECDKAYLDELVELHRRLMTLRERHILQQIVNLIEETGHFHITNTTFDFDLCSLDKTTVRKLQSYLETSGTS
FGF22 binding – binders of recombinant human FGF22 by thermal shift; 1.5% of 340,000 active; SYPRO orange fluorescence; percent of sucrose octasulfate shift, DMSO zero; AID 651658; calls only at 9.99 µM; Q9HCT0;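 active means melting point raised past a set limit in the mean and every replicate; three in four hits are not shown here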
Target sequence (Q9HCT0 whole entry, looked up): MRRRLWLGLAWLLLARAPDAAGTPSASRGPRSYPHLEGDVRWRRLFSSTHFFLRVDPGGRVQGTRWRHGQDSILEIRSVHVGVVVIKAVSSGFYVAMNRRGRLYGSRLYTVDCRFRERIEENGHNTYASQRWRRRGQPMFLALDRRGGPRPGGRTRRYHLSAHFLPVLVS
Ecoli rRNA inh – selective bacterial rRNA inhibition in E. coli. E. coli WT GFP vs humanized-ribosome RFP mutants, fluorescence, 24 h; hits give low values; DMSO median 0, no signal -100. GFP signal change (wild-type ribosome), % (no concentration beside the values). 1.6% of 350,000 active. AID 720706;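 active means significant combined selectivity score with lowered wild-type GFP, culture density cut under 30%, mutant RFP and density less affected; inactive means any of these conditions unmet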; further: one replicate is shown; some compounds called inactive have numbers as strong as hits
Ecoli rRNA inh OD600 – also measured in Ecoli rRNA inh; calls as there; OD600 change, %; measured here: OD600 growth;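 optical density of the mix in the first replicate; 0 = DMSO median and -100 = no signal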
Ecoli rRNA inh RFP – further read-out of Ecoli rRNA inh, marked with its call; RFP signal change, %; measured here: RFP humanized mutant strains;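 first replicate; 0 = DMSO median and -100 = no signal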
Active calls of the source: *; i = inactive.

SMILES | AF4-AF9 inh | FGF22 binding | Ecoli rRNA inh | Ecoli rRNA inh OD600 | Ecoli rRNA inh RFP
C[C@@H]1CCCCO[C@@H](CN(C)S(=O)(=O)c2cccs2)[C@@H](C)CN([C@@H](C)CO)C(=O)c2cc(NC(=O)Nc3ccc4c(c3)OCO4)ccc2O1 | 0.2 | i | -4 | -3 | -3.0
CCOC(=O)[C@]12CCC=C1N(CCC1=CCCCC1)C(=O)[C@H](CC(=O)NCCCCc1ccccc1)C2 | 0.5 | i | -1 | -1 | 5.6
COc1ccc(-c2ccccc2)cc1NC(=O)[C@@H]1O[C@H](CO)[C@@H](O)[C@H]1O | -0.3 | i | -3 | -7 | 0.4
CC=Cc1ccc2n(c1=O)C[C@@H]1[C@@H](CO)[C@H](C(=O)NCC(F)(F)F)[C@H]2N1C(=O)C1CCCCC1 (mixture of isomers) | 1.8 | i | 6 | -1 | -1.5
O=C(COC(=O)CNC(=O)c1ccccc1)NC1CCCC1 | 8.9 | i | 1 | 5 | 1.3
COc1ccc(NC(=O)N(C)C[C@@H]2Oc3ccc(NC(=O)Nc4ccc5c(c4)OCO5)cc3C(=O)N([C@H](C)CO)C[C@@H]2C)cc1 | 8.0 | i | -3 | -5 | 0.8
O=C(C1CCCCC1)N1CCC2CC1c1cc(Cl)ccc12 (stereo not given) | 0.7 | i | -18 | -22 | -6.3
Cc1ccccc1S(=O)(=O)N[C@@H]1CC[C@@H](CCn2cc(-c3ccccc3)nn2)O[C@@H]1CO | 0.2 | i | -6 | -9 | -1.0
C[C@@H]1CN([C@H](C)CO)C(=O)c2cccc(NC(=O)C3CCOCC3)c2O[C@H]1CN(C)Cc1ccncc1 | -1.3 | i | 0 | 3 | -1.6
CC(C)C(=O)Nc1ccc2c(c1)C(=O)N(C)[C@H]1CC[C@H](CC(=O)Nc3ccc(Cl)cc3)O[C@@H]1CO2 | -0.7 | i | 2 | 0 | -0.1
C[C@@H]1CN([C@H](C)CO)C(=O)Cc2cc(NC(=O)C3CCCCC3)ccc2O[C@H]1CN(C)S(=O)(=O)c1ccc(Cl)cc1 | -2.2 | i | -1 | 1 | -0.4
COc1ccc(NC(=O)N(C)C[C@@H]2Oc3ccc(NS(=O)(=O)c4ccc(OC)cc4)cc3C(=O)N([C@H](C)CO)C[C@H]2C)cc1 | -0.6 | i | -1 | -2 | -0.4
COc1ccc(NC(=O)N2CCC3(CC2)CN(C(=O)C2CCC2)[C@@H](CO)c2c3c3ccc(OC)cc3n2C)cc1 | -0.3 | i | -6 | -18 | 0.9
O=C(CN1CCOCC1)NCC[C@H]1CC[C@H](NC(=O)Nc2ccc(C(F)(F)F)cc2)[C@@H](CO)O1 | 0.2 | i | -3 | -3 | -0.5
C[C@H](CO)N1C[C@H](C)[C@@H](CN(C)CC2CCCCC2)Oc2c(NC(=O)Nc3ccc(C(F)(F)F)cc3)cccc2C1=O | 1.3 | i | 5 | 7 | -1.6
COc1ccc(CN(C)C[C@@H]2Oc3ccc(NS(=O)(=O)c4c(C)noc4C)cc3CC(=O)N([C@@H](C)CO)C[C@@H]2C)cc1 | -1.7 | i | -3 | -3 | 2.3
COc1ccc(CN(C)C[C@@H]2Oc3c(NS(=O)(=O)c4c(C)noc4C)cccc3C(=O)N([C@H](C)CO)C[C@@H]2C)cc1 | -1.8 | i | 5 | 6 | -1.8
C[C@@H]1CN([C@@H](C)CO)C(=O)CCCn2cc(nn2)CO[C@H]1CN(C)Cc1cccnc1 | -1.3 | i | -2 | -1 | 0.0
COc1ccc(CN(C)C[C@H]2Oc3ccc(NC(=O)C4CC4)cc3CC(=O)N([C@@H](C)CO)C[C@@H]2C)cc1 | -3.8 | i | 2 | 1 | -2.0
Cc1ccc2nc(NC3=NC4(CCCC4)C4=C(CCCC4=O)N3)oc2c1 | -0.5 | i | 4 | 5 | 8.3

As entered above.
Result for CC=Cc1ccc2n(c1=O)C[C@@H]1[C@@H](CO)[C@H](C(=O)NCC(F)(F)F)[C@H]2N1C(=O)C1CCCCC1 (mixture of isomers) in Ecoli rRNA inh RFP: -1.5
Result for COc1ccc(-c2ccccc2)cc1NC(=O)[C@@H]1O[C@H](CO)[C@@H](O)[C@H]1O in Ecoli rRNA inh RFP: 0.4
Result for COc1ccc(NC(=O)N2CCC3(CC2)CN(C(=O)C2CCC2)[C@@H](CO)c2c3c3ccc(OC)cc3n2C)cc1 in Ecoli rRNA inh RFP: 0.9
Result for C[C@@H]1CN([C@H](C)CO)C(=O)c2cccc(NC(=O)C3CCOCC3)c2O[C@H]1CN(C)Cc1ccncc1 in Ecoli rRNA inh RFP: -1.6
Result for Cc1ccccc1S(=O)(=O)N[C@@H]1CC[C@@H](CCn2cc(-c3ccccc3)nn2)O[C@@H]1CO in AF4-AF9 inh: 0.2

The list goes on:
SMILES | AF4-AF9 inh | FGF22 binding | Ecoli rRNA inh | Ecoli rRNA inh OD600 | Ecoli rRNA inh RFP
Cc1noc(C)c1NC(=O)Nc1ccc2c(c1)C(=O)N([C@@H](C)CO)C[C@@H](C)[C@H](CN(C)CC1CCCCC1)OCCCC[C@H](C)O2 | 0.7 | i | 3 | 4 | -2.0
C[C@H](CO)N1C[C@H](C)[C@@H](CN(C)C(=O)Cc2ccccc2)OCc2ccccc2-c2ccccc2C1=O | -2.5 | i | 0 | 3 | -0.7
O=C(O)CCC(=O)c1ccc(C2CCCCCC2)cc1 | -5.5 | i | -9 | -12 | -1.6
C[C@H]1CCCCO[C@H](CN(C)S(=O)(=O)c2cccs2)[C@@H](C)CN([C@@H](C)CO)C(=O)c2cc(NC(=O)C3CCCCC3)ccc2O1 | 0.1 | i | 0 | -6 | 0.0
Cc1cccc(-c2ccc([C@H]3[C@@H](CO)N4CCCCN(S(=O)(=O)c5cccs5)C[C@@H]34)cc2)c1 | -5.2 | i | 0 | 13 | 2.6
CCCN1C[C@H](C)[C@H](OC)CN(C)C(=O)c2ccc(NC(=O)COC)cc2OC[C@H]1C | -9.8 | i | 0 | 5 | -0.9
O=C(c1ccc2c(c1)OCO2)N1CC[C@H]2[C@H](CO)Nc3ccc(-c4ccccc4)cc3[C@H]21 | 2.0 | i | -4 | -41 | 23
Cc1ccc(S(=O)(=O)NCC[C@H]2CC[C@@H](NC(=O)Nc3ccccc3F)[C@@H](CO)O2)cc1 | 1.6 | i | 2 | -1 | -0.1
C[C@H]1CN([C@@H](C)CO)C(=O)c2cccc(NC(=O)Nc3ccc(C(F)(F)F)cc3)c2O[C@@H]1CN(C)S(=O)(=O)c1ccc(F)cc1 | 0.7 | i | 1 | -1 | 0.7
O=C(Nc1ccn(CCCNC2CCN(Cc3ccccc3)CC2)c(=O)n1)OCc1ccccc1 | 0.1 | i | 27 | 16 | 9.0
C[C@H]1CN([C@@H](C)CO)S(=O)(=O)c2ccc(C#CC3(O)CCCC3)cc2O[C@@H]1CN(C)C | -5.1 | i | -1 | 8 | -5.5
CCCC#Cc1cnc2c(c1)C(=O)N([C@H](C)CO)C[C@H](C)[C@@H](CN(C)C(=O)Cc1cccnc1)O2 | -3.1 | i | -2 | 3 | -0.6
O=S(=O)(NC[C@H]1[C@@H](c2ccccc2)[C@@H](CO)N1CC1CC1)c1ccccc1 | -0.6 | i | -2 | 0 | -0.9
COc1ccc(S(=O)(=O)Nc2ccc3c(c2)C(=O)N([C@H](C)CO)C[C@H](C)[C@@H](CN(C)CC2CCCCC2)O3)cc1 | 1.2 | i | 1 | -7 | 0.9
CO[C@H]1CN(C)C(=O)c2ccc(NS(=O)(=O)c3ccc(C)cc3)cc2OC[C@@H](C)N(Cc2nccs2)C[C@@H]1C | -0.1 | i | -2 | -3 | 0.7
C[C@@H]1CN([C@H](C)CO)C(=O)c2cc(-c3cncnc3)cnc2O[C@H]1CN(C)C(=O)Cc1cccnc1 | -7.1 | i | 1 | 8 | -4.3
O=C(CN1CCN(Cc2ccccc2)CC1)c1ccc(Br)cc1 | 9.6 | i | 4 | 18 | -7.3
C[C@@H]1CCCCO[C@@H](CN(C)C(=O)Nc2ccc3c(c2)OCO3)[C@H](C)CN([C@@H](C)CO)C(=O)c2cc(NS(=O)(=O)c3cn(C)cn3)ccc2O1 | -3.9 | i | -1 | 2 | -2.1
CN1C(=O)c2cc(NC(=O)c3cnccn3)ccc2OC[C@H]2O[C@@H](CC(=O)N[C@@H]3CCN(Cc4ccccc4)C3)CC[C@@H]21 | -3.5 | i | 2 | 12 | -0.4
O=C(C[C@H]1C=C[C@H](NC(=O)CN2CCOCC2)[C@@H](CO)O1)NCCc1ccccc1 | -1.0 | i | 2 | 3 | -3.1

The results go on:
SMILES	AF4-AF9 inh	FGF22 binding	Ecoli rRNA inh	Ecoli rRNA inh OD600	Ecoli rRNA inh RFP
Cc1cccc(-c2ccc([C@H]3[C@H]4CN(S(=O)(=O)c5cccc(F)c5)CC(=O)N4[C@H]3CO)cc2)c1	0.1	i	1	3	2.3
Cc1ccc(S(=O)(=O)Nc2ccc3c(c2)CC(=O)N([C@@H](C)CO)C[C@@H](C)[C@H](CN(C)Cc2ccc(Cl)c(Cl)c2)O3)cc1	0.0	i	0	1	4.0
O=C(O)c1cccc(S(=O)(=O)Nc2cccc(S(=O)(=O)Nc3ccc(Br)cc3)c2)c1	-0.9	i	2	-5	0.1
CCC(=O)N1[C@H](CO)[C@@H]2c3ccccc3N(C(=O)CC(F)(F)F)C[C@@H]21	-0.8	i	5	16	-0.1
C/C=C/c1ccc2c(c1)O[C@H](CN(C)C(=O)c1ccccn1)[C@@H](C)CN([C@@H](C)CO)S2(=O)=O	-1.3	i	2	-5	-6.5
CC(=O)N[C@@H]1CC[C@H](CCNC(=O)C2CCCC2)O[C@@H]1CO	1.6	i	2	8	0.8
C[C@@H]1CCCCO[C@H](CN(C)Cc2ccc(C(=O)O)cc2)[C@H](C)CN([C@H](C)CO)C(=O)c2cc(NC(=O)Nc3cccc4ccccc34)ccc2O1	4.8	i	-5	-2	-0.2
C[C@@H]1CN([C@H](C)CO)C(=O)c2cc(NC(=O)Nc3ccc4c(c3)OCO4)ccc2O[C@@H](C)CCCCO[C@H]1CN(C)C(=O)Cc1ccccc1	6.1	i	2	7	-0.6
COC(=O)C[C@@H]1C=C[C@H](NC(=O)Nc2cc(F)ccc2F)[C@@H](CO)O1	1.3	i	-1	3	0.7
COc1ccc(Cl)cc1NC(=O)c1cccc([N+](=O)[O-])c1O	-5.0	i	1	-5	2.7
Cc1noc(C)c1NC(=O)N(C)C[C@H]1Oc2c(NC(=O)Nc3ccc(F)cc3)cccc2C(=O)N([C@@H](C)CO)C[C@@H]1C	2.1	i	0	5	0.1
COc1cccc(C#Cc2ccc3c(c2)O[C@@H](CN(C)C(=O)CN2CCOCC2)[C@H](C)CN([C@H](C)CO)S3(=O)=O)c1	2.8	i	0	-3	15
O=C(c1ccc(Cl)cc1)C1CCN(C(=S)Nc2ccccc2)CC1	3.2	i	-5	-1	-2.3
C[C@H](CO)N1C[C@H](C)[C@@H](CN(C)Cc2ccncc2)Oc2cc(C#CC(C)(C)O)ccc2S1(=O)=O	-0.1	i	-4	-2	-0.9
C[C@H](CO)N1C[C@H](C)[C@H](CN(C)Cc2ccc(Cl)c(Cl)c2)Oc2ccc(NC(=O)Cn3cnnn3)cc2CC1=O	3.4	i	-2	-6	2.3
COc1ccc(-c2cnc3c(c2)C(=O)N([C@H](C)CO)C[C@H](C)[C@H](CN(C)C(=O)Nc2ccc4c(c2)OCO4)O3)cc1	3.0	i	-5	-8	0.6
C=C1c2cccc(C(F)(F)F)c2O[C@H](C(=O)OCC)[C@H]1OC	-1.8	i	9	8	-1.3
C[C@@H]1CN([C@@H](C)CO)C(=O)c2cc(NC(=O)CCC(F)(F)F)ccc2O[C@H]1CN(C)Cc1ccc(Oc2ccccc2)cc1	6.4	i	-2	-18	1.1
O=C(Cc1ccc([N+](=O)[O-])cc1)c1ccccc1	0.4	i	-7	1	-3.0
C[C@H]1CN([C@@H](C)CO)C(=O)c2cccc(NC(=O)Nc3ccc(F)cc3)c2O[C@@H]1CN(C)Cc1ccc(Oc2ccccc2)cc1	3.3	i	0	13	0.7

Remaining list, next part:
SMILES	AF4-AF9 inh	FGF22 binding	Ecoli rRNA inh	Ecoli rRNA inh OD600	Ecoli rRNA inh RFP
C[C@H]1CN([C@@H](C)CO)C(=O)c2cc(-c3ccccc3F)cnc2O[C@H]1CN(C)C(=O)c1cnccn1	-3.6	i	1	12	-2.1
CC(=O)N(C)C[C@@H]1Oc2ncc(C#Cc3cccc(F)c3)cc2C(=O)N([C@@H](C)CO)C[C@H]1C	2.7	i	1	-2	3.2
CCCNC(=O)C[C@H]1C[C@H]2c3cc(NC(=O)C4CCOCC4)ccc3O[C@H]2[C@@H](CO)O1	-3.3	i	4	0	-1.4
Cc1cc2cc3n(c2nn1)N=C(Cl)CC3	-4.0	i	5	7	-2.8
O=C1CCCN1CCCNc1nc(NCc2ccccc2)nc2ccsc12	0.0	i	-2	-7	0.5
C[C@H](CO)N1C[C@H](C)[C@H](CN(C)Cc2ccc(C(=O)Nc3ccccc3N)cc2)Oc2ccc(N(C)C)cc2C1=O	19	i	-2	1	0.8

2 compounds from above, limited to Ecoli rRNA inh OD600, FGF22 binding and Ecoli rRNA inh RFP.
Structure	Ecoli rRNA inh OD600	FGF22 binding	Ecoli rRNA inh RFP
C[C@H]1CN([C@@H](C)CO)C(=O)c2cccc(NC(=O)Nc3ccc(F)cc3)c2O[C@@H]1CN(C)Cc1ccc(Oc2ccccc2)cc1	13	i	0.7
C[C@H]1CN([C@@H](C)CO)C(=O)c2cc(-c3ccccc3F)cnc2O[C@H]1CN(C)C(=O)c1cnccn1	12	i	-2.1

Some of the compounds tested (hit frequency here may not be typical).
